Screens from PubChem BioAssay.
E coli growth: inhibitors of Escherichia coli growth. OD600, 23 h; stronger effect = lower value. OD600 absorbance (concentration not given with the values). 330,000 tested, 0.21% active;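 active = OD600 absorbance below the run mean of sample wells minus 3.6 SD, in any replicate, cut at about 0.56 in these data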;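 also: stock transfer was 300 nL into about 60 µL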
Bfl-1 A1 inh: inhibitors of the anti-apoptotic protein A1, read as caspase activation | MEF A1-2A-BIM cells, Caspase-Glo 3/7 luminescence, 3 h; percent of clofoctol response, vehicle zero | caspase activation, % (test concentration not listed) | 330,000 tested, 0.066% active;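 active = over half of replicate activation scores above 10%, or exactly half above 10 with the replicate mean above 10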;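 also: wells of about 30 µL received 50 nL stock; many hits fall short of the cut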
FGF22 binding: FGF22 (human) thermal shift binding | Q9HCT0 | recombinant FGF22 thermal shift, SYPRO orange fluorescence; percent of sucrose octasulfate shift, DMSO zero | calls only at 9.99 µM | 340,000 tested, 1.5% active;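 active = melting point raised past a set limit in the mean and every replicate; three in four hits are not shown here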
Target sequence (Q9HCT0 whole entry, looked up): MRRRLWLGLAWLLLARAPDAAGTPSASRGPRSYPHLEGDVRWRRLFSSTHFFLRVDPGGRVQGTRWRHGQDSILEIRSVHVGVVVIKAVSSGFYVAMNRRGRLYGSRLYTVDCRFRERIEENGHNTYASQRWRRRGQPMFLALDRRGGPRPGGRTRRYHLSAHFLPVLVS
Beta cell apopt: beta cell apoptosis inhibition; 300,000 tested, 0.8% active; protection from apoptosis, % (no concentration beside the values); AID 435005; INS-1E cytokine-induced death, ATP luminescence, 48 h; percent of positive-control rescue, neutral wells zero;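 active = all replicates at 75% or more, or half of them and the mean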;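 also: 0% = cytokine-treated negative control wells and 100% = positive control rescue; higher means more ATP so stronger rescue from cytokine killing; wells of about 40 µL received 100 nL stock; the first replicate is given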
rRNA inh HTS: inhibitors of bacterial rRNA selective over humanized ribosomes; GFP signal change (wild-type ribosome), % (concentration not given with the values); 350,000 tested, 1.6% active; E. coli WT GFP vs humanized-ribosome RFP mutants, fluorescence, 24 h; stronger effect = lower value; DMSO median 0, no signal -100; AID 720706;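 active = significant combined selectivity score with lowered wild-type GFP, culture density cut under 30%, mutant RFP and density less affected; inactive = any of these conditions unmet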; also: one replicate is shown; some compounds called inactive have numbers as strong as hits
AF4-AF9 inh: blocks AF4 peptide binding to human AF9 | P42568 | AlphaScreen, biotin-AF4 peptide binding to FLAG-AF9 | inhibition, % at 10 µM | 350,000 tested, 0.47% active | AID 651704;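 active = every replicate reaching a set inhibition limit, whatever the replicate mean, cut at about 25% in these data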;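 also: 0% = plate neutral control median and 100% = total signal loss; the record names both 10 and 1 µM as test concentration; the first replicate is given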
Target sequence (P42568 whole entry, looked up): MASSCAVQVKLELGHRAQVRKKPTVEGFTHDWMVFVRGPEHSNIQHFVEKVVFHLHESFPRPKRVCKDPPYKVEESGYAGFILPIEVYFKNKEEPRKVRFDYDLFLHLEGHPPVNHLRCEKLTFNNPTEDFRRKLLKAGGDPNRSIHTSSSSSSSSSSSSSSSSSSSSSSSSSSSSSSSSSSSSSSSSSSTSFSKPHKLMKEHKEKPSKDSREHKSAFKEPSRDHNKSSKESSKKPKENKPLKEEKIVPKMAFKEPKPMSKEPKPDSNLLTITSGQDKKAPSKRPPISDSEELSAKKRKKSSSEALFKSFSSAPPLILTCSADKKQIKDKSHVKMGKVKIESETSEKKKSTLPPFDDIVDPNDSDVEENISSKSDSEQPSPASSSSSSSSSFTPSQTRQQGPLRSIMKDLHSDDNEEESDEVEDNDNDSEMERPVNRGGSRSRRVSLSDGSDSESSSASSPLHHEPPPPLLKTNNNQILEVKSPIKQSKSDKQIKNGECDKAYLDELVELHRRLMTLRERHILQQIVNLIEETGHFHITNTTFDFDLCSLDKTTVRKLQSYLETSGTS
T cruzi inh: T. cruzi replication inhibition. inhibition, % (concentration not given with the values). T. cruzi beta-gal in NIH3T3, luminescence, 90 h. 300,000 tested, 1.4% active;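 active = mean inhibition across valid replicates above about 55%, limit read from the data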;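 also: signal also drops with host cell toxicity which is not excluded here; 0% = plate median of DMSO wells and 100% = zero luminescence signal; higher percent means less beta-gal luminescence so fewer parasites; stock transfer was 50 nL into about 50 µL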
UCH37 DUB inh: human UCH37 deubiquitinating enzyme inhibition; Q9Y5K5; purified proteasome/UCH37, Ub-AMC cleavage fluorescence; inhibition, % (no concentration beside the values); 330,000 tested, 0.33% active; AID 588478;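 active = mean of two replicates above 20%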;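 also: 0% = compound-free wells with enzyme and 100% = wells lacking proteasome; stock transfer was 100 nL into about 20 µL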
Target sequence (Q9Y5K5 whole entry, looked up): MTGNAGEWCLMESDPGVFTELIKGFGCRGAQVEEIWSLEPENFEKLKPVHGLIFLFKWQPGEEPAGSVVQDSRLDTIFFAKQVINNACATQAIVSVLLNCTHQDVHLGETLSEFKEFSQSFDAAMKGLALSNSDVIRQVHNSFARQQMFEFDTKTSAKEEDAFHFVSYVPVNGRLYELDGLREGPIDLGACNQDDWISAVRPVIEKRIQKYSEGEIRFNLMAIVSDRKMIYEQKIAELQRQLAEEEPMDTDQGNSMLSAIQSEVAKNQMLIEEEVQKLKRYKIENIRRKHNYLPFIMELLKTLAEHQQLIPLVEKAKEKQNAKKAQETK
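Material: Human UCH37 enzyme supplied as purified proteasome complex | Schedule: 30 min compound-proteasome preincubation then 25 min substrate reaction, room temperature | Detection: AMC fluorescence from Ub-AMC cleavage, excitation 355 nm, emission 460 nm | Benchmarks: Wells without proteasome as full block, compound-free enzyme plus substrate as uninhibited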
rRNA inh HTS OD600: also measured in rRNA inh HTS; calls as there; OD600 change, %; measured here: OD600 growth;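 optical density of the mix in the first replicate; 0 = DMSO median and -100 = no signal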
rRNA inh HTS RFP: further read-out of rRNA inh HTS, marked with its call; RFP signal change, %; measured here: RFP humanized mutant strains;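 first replicate; 0 = DMSO median and -100 = no signal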
Numbers without * were called inactive; i = inactive; . = not tested or not shown; & = joins results of further samples. These rows are one share of the data (hit frequency here may not be typical).

SMILES | E coli growth | Bfl-1 A1 inh | FGF22 binding | Beta cell apopt | rRNA inh HTS | rRNA inh HTS OD600 | rRNA inh HTS RFP | AF4-AF9 inh | T cruzi inh | UCH37 DUB inh
CCOC(=O)c1ccc(S(=O)(=O)N2CCN(C(C)=O)CC2)cc1 | 0.71 | -0.6 | i | -1 | 12 | -1 | 0.8 | 0.2 | -17 | 5.2
O=C(CCS(=O)(=O)c1ccccc1)N(CCCN1CCOCC1)c1nc2c(F)cccc2s1 | 0.62 | 0.5 | i | -20 | 4 | -5 | 4.4 | -1.0 | 55* | -0.3
C[C@@H]1CN([C@@H](C)CO)C(=O)Cc2cc(NC(=O)C3CCCCC3)ccc2O[C@H]1CN(C)S(=O)(=O)c1ccccc1 | . | 1.2 | i | -2 | 12&2 | 8&-9 | 3.4&0.2 | -14&-1.1 | . | 2.4
O=C(COC(=O)CCN=C1NS(=O)(=O)c2ccccc21)NC1CCCCCCC1 | 0.71 | 0.6 | i | -1 | -12 | -8 | 1.2 | -1.2 | -14 | -0.2
CCOC(=O)N1CCN(S(=O)(=O)c2cn(C)c(=O)n(C)c2=O)CC1 | 0.67 | 0.0 | i | -3 | 8 | 16 | -0.6 | -1.2 | -4 | 4.1
CNC(=O)C1Cc2ccccc2CN1S(=O)(=O)c1ccc(OC)c(OC)c1 (centres undefined) | 0.67 | 0.1 | i | . | 5 | 10 | 0.2 | -0.8 | -7 | 4.7
O=C(Oc1ccc(N2C(=O)C3C4CCC(C4)C3C2=O)cc1)c1ccco1 (centres undefined) | 0.72 | 0.3 | i | 3 | 2 | 10 | -1.4 | 0.0 | -4 | 0.7
OCC1CCCN(C(=S)Nc2ccc(OC(F)F)cc2)C1 (centres undefined) | . | 0.7 | i | -2 | -7 | -8 | -3.2 | -15 | 2 | 4.0
Cc1nc2ccc(Cl)cc2c(-c2ccccc2)c1CC(=O)O | 0.64 | 1.5 | i | -2 | -17 | -27 | -6.5 | 8.3 | -20 | 2.9
CC(=O)NCCNC(=O)C1CCCCN1S(=O)(=O)c1ccccc1 (centres undefined) | 0.65 | 0.4 | i | -2 | 28 | 24 | 4.1 | -0.2 | -22 | 5.5
O=C1OCCN1C(=O)[C@H]1[C@H](c2ccc(Cl)cc2)C(c2ccccc2)=NN1c1ccc(Br)cc1 | 0.74 | . | i | . | 28 | 24 | 1.4 | -14 | . | i
COC(=O)Nc1nc(-c2ccccc2)c(C(=O)c2ccc(Cl)cc2)s1 | 0.73 | 0.9 | . | 26 | . | . | . | . | . | 3.8
COc1cc(N)c(Cl)cc1C(=O)OCC(=O)N1CCCCCC1 | 0.66 | 0.5 | i | 3 | 5 | 9 | -1.7 | 4.6 | . | 3.2
Cc1ccc(N(CC(=O)N2CCc3ccccc3C2)S(C)(=O)=O)cc1 | 0.67 | 0.3 | i | -5 | -2 | 0 | 1.8 | -1.0 | 11 | 0.7
CC(=O)C[C@@H](O)CC(=O)[C@H]1OC(=O)[C@H](C)CCCCc2ccccc21 | 0.71 | -0.1 | i | -5 | -9 | -11 | -7.5 | -0.9 | . | 5.4
CCOc1ccccc1CNC(=O)c1nn(CC)cc1[N+](=O)[O-] | 0.73 | 0.4 | i | -5 | 0 | -3 | 1.6 | 3.9 | 2 | -0.7
CCCCc1nnc(NC(=O)c2ccc(OCc3c(C)noc3C)cc2)s1 | 0.7 | . | i | . | 3 | 4 | -0.9 | -0.9 | . | 2.5
COc1ccc(-c2nc(-c3ccccc3OC)no2)cc1OC | 0.67 | -2.9 | . | 2 | . | . | . | . | 6 | 5.5
CN(C(=O)Cn1nc(C(=O)O)c2ccccc2c1=O)C1CCCCC1 | 0.69 | -0.8 | i | -5 | 1 | 0 | 2.7 | -5.6 | . | 4.1
O=C(NCCOc1ccccc1)c1ccc2c(c1)S(=O)(=O)c1cc(Cl)ccc1C2=O | 0.63 | 1.1 | i | 0 | . | . | . | -8.5 | . | 1.9
CCOc1ccc(-n2ccnc2SCC(=O)Nc2nnc(C)s2)cc1 | 0.74 | -0.1 | . | . | . | . | . | . | -14 | -1.0
O=C1N(Cc2ccccc2F)c2ccccc2C12OCCCO2 | 0.68 | 0.1 | . | -8 | . | . | . | . | -11 | 0.9
Cn1c(CC(=O)Nc2ccccc2F)nnc1SCC(=O)Nc1nncs1 | 0.63 | -0.3 | i | -5 | -1 | 2 | -2.4 | 1.0 | 3 | 1.9
O=C(COC(=O)COc1ccc(Cl)cc1)Nc1ccc(F)c([N+](=O)[O-])c1 | 0.69 | 0.6 | . | -5 | . | . | . | . | -4 | 4.2
CCOC(=O)C1=C(COC(=O)COc2ccc(C(=O)CC)cc2)NC(=O)NC1C (centres undefined) | 0.66 | -0.6 | i | -15 | 6 | 9 | 1.2 | -26 | -12 | -0.7

Next section; it opens with the 3 that closed the last part.
SMILES | E coli growth | Bfl-1 A1 inh | FGF22 binding | Beta cell apopt | rRNA inh HTS | rRNA inh HTS OD600 | rRNA inh HTS RFP | AF4-AF9 inh | T cruzi inh | UCH37 DUB inh
Cn1c(CC(=O)Nc2ccccc2F)nnc1SCC(=O)Nc1nncs1 | 0.63 | -0.3 | i | -5 | -1 | 2 | -2.4 | 1.0 | 3 | 1.9
O=C(COC(=O)COc1ccc(Cl)cc1)Nc1ccc(F)c([N+](=O)[O-])c1 | 0.69 | 0.6 | . | -5 | . | . | . | . | -4 | 4.2
CCOC(=O)C1=C(COC(=O)COc2ccc(C(=O)CC)cc2)NC(=O)NC1C (centres undefined) | 0.66 | -0.6 | i | -15 | 6 | 9 | 1.2 | -26 | -12 | -0.7
CC(CCc1ccc(O)cc1)NCc1ccc(Cl)cc1Cl (centres undefined) | 0.57 | -2.7 | i | 9 | 8 | 4 | -0.9 | 0.7 | 0 | 1.8
C1=C(c2ccco2)N2CCN=C2S1 | 0.62 | 0.7 | i | -4 | 25 | 9 | 2.2 | -1.9 | -15 | 2.4
CCN(CC)S(=O)(=O)c1ccc(NC2c3ccccc3C(=O)N2CCN2CCOCC2)cc1 (centres undefined) | 0.79 | 0.6 | i | -6 | -4 | 2 | -2.7 | 1.7 | 12 | 5.3
CCc1ccc(CN2CCSCC2)cc1 | 0.62 | 0.3 | i | -8 | 9 | 19 | 1.9 | -18 | 6 | 4.7
COC(=O)C1=C(O)CSC1=Nc1ccc(C)cc1 | 0.7 | 0.0 | i | 4 | . | . | . | 1.9 | -17 | 0.4
CCOc1cccc(C(=O)Nc2ccc3c(c2)OCCO3)c1 | 0.64 | -5.2 | i | 0 | -1 | 2 | 0.7 | -0.1 | -11 | 3.9
CC(NC(=O)COC(=O)Cc1ccc(-c2ccccc2)cc1)c1ccccc1 (centres undefined) | 0.68 | 0.0 | . | -2 | . | . | . | . | 7 | -0.1
CC(Sc1nc2cc([N+](=O)[O-])ccc2n1-c1cccc(C(F)(F)F)c1)C(=O)NC(N)=O (centres undefined) | 0.69 | 0.1 | i | 3 | 7 | 7 | 7.7 | -3.3 | 17 | 4.9
Cc1cc(C(=O)OCC(=O)NCCc2ccc(S(N)(=O)=O)cc2)c2ccccc2n1 | 0.68 | 0.9 | i | 0 | 3 | 3 | -1.1 | 5.4 | . | -4.3
Cc1cccc(-c2noc(CCCOc3ccc(Cl)cc3Cl)n2)c1 | 0.74 | 0.1 | . | -5 | . | . | . | . | 8 | -0.1
Cn1c(=O)n(CCCO)c(=O)c2c1nc1n2CCCN1Cc1ccccc1 | 0.68 | 0.0 | i | -2 | -16 | -1 | -5.3 | 3.7 | -1 | 3.4
COc1ccc(CCN(C)C(=O)c2cnc(C)cn2)cc1OC | 0.65 | -0.4 | i | 2 | 14 | 10 | -0.1 | -2.0 | -15 | 6.1
Cc1cc(S(=O)(=O)N2CCCC2)ccc1OCC(=O)N1CCC(C(N)=O)CC1 | 0.7 | 0.1 | . | -3 | 16 | 2 | 1.9 | -3.7 | -13 | 2.8
Cc1ccc(N2C(=O)CSC2c2ccccn2)cc1Cl (centres undefined) | 0.65 | -0.1 | . | . | . | . | . | . | 6 | 1.2
C#CCNC(=O)C1CCN(c2ccc(S(=O)(=O)N3CCOCC3)cc2Cl)CC1 | 0.65 | -0.2 | i | 4 | -2 | 5 | 1.4 | -2.9 | 12 | 0.2
C/C(=C\c1cc2ccccc2o1)C1Nc2cccc3cccc(c23)N1 | . | 1.2 | i | -1 | 2 | 18 | -5.3 | 4.2 | . | -1.9
COCCN(C(=O)CNC(=O)c1ccco1)C(C(=O)NC1CCCC1)c1ccccc1 (centres undefined) | 0.69 | 0.2 | i | -3 | 7 | 12 | -0.8 | 0.4 | 2 | 5.7
C=C1c2cc(C)c(C)cc2NC(=O)N1c1ccccc1 | 0.66 | 0.3 | i | -2 | 13 | 3 | 2.5 | -4.6 | -11 | -5.3
COC(=O)C1C2C=CC(C3CC23)C1C(=O)OCC(=O)c1ccccc1 (centres undefined) | 0.7 | 1.1 | . | -6 | . | . | . | . | -11 | 0.7
CC(=O)Oc1ccc(Cl)cc1/C=C/c1cc(OC(C)=O)c2ccccc2n1 | 0.7 | -0.1 | . | -8 | . | . | . | . | -8 | -124
CC(C)(C)C(=O)N1CCN(C(c2ccccc2)c2ccccc2)CC1 | 0.71 | -0.8 | . | 0 | . | . | . | . | 2 | 3.3
Cc1nc(CCNC(=O)CC2C(=O)NCCN2CC(C)(C)C)nc2c1CCC2 (centres undefined) | 0.68 | -1.3 | i | -8 | 4 | 12 | 2.9 | -2.3 | 4 | -1.0
CCCOc1ccc(N2C(=O)CC(NCc3ccc(S(N)(=O)=O)cc3)C2=O)cc1 (centres undefined) | 0.68 | -0.1 | . | 0 | 5 | 11 | 0.2 | -1.9 | 2 | 0.9
Cn1c(-c2cc3ccc(OC(=O)C(C)(C)C)cc3oc2=O)nc2ccccc21 | 0.69 | -1.3 | . | -7 | . | . | . | . | -22 | i
COc1ccc(CSCC(=O)Nc2ccccc2)cc1[N+](=O)[O-] | 0.68 | 0.0 | i | 2 | -3 | -6 | -5.7 | 3.7 | -3 | 2.1

Following part:
SMILES | E coli growth | Bfl-1 A1 inh | FGF22 binding | Beta cell apopt | rRNA inh HTS | rRNA inh HTS OD600 | rRNA inh HTS RFP | AF4-AF9 inh | T cruzi inh | UCH37 DUB inh
Cc1ccc(S(=O)(=O)N(C)C)cc1NC(=O)COC(=O)c1ccc2ccccc2n1 | 0.7 | . | i | . | 6 | 15 | -1.6 | -2.1 | . | 1.0
Cc1ccc(CNc2ccc(N3CCOCC3)cc2)s1 | 0.7 | -2.1 | . | 2 | . | . | . | . | 1 | -0.4
CCCNC(C)C(=O)Nc1ccccc1C (centres undefined) | 0.71 | 0.5 | i | -6 | . | . | . | -2.5&-4.8 | -3 | 1.2
CCOc1ccc(/C=C/C2=Cc3c(sc(NC(=O)CSc4n[nH]c(N)n4)c3C#N)C(C)(C)C2)cc1 | 0.65 | -0.1 | . | 3 | . | . | . | . | 21 | -38
CC(C)C(NC=C1C(=O)OC(C)(C)OC1=O)C(=O)O (centres undefined) | 0.66 | 2.5 | i | 2 | 14 | 11 | -5.6 | -25 | -10 | 0.0
CSc1nccc(Oc2ccccc2Cl)n1 | 0.68 | -0.4 | i | 0 | -2 | 3 | -1.5 | -0.3 | -6 | 5.1
Cc1cc(C(=O)N2CCN(c3ccccc3)CC2)c(C)o1 | 0.66 | 0.1 | . | -3 | . | . | . | . | 0 | 1.1
